Screening data (PubChem BioAssay)
TRPML1 ag: qHTS for Agonists of the Human Mucolipin Transient Receptor Potential 1 (TRPML1); Mucolipin-1 (Homo sapiens), Q9GZU1; activation, % (no concentration beside the values); 410,000 tested, 0.12% active; TRPML1-expressing cells, Ca2+ dye fluorescence, FDSS; host cell line not named in the record; reference of the full effect not given here; in the data active = activation above about 50%; inconclusive = about 30% to 50%; inactive = below about 30%; further: 0% is about no effect; the text of the record puts the active cut at 80%
Target sequence (Q9GZU1 whole entry, looked up): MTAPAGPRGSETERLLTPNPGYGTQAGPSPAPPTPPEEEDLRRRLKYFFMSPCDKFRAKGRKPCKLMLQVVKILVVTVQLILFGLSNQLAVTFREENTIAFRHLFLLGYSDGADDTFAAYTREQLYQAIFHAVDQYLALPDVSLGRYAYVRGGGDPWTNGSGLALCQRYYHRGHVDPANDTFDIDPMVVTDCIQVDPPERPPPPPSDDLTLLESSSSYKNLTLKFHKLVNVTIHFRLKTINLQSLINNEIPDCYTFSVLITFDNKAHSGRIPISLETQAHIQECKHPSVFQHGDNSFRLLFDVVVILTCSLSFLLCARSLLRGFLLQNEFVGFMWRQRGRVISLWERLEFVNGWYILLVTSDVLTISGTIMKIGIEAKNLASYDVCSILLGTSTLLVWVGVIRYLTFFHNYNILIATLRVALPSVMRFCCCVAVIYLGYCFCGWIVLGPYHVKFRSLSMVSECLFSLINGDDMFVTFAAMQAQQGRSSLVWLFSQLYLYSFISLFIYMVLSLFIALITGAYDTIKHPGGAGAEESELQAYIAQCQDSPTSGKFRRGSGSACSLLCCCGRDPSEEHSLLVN
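Agonist activity was taken from a 110 s kinetic Ca2+ dye read on the FDSS after pinning compounds onto TRPML1-DL cells. The cells were seeded at 1,500/well with Tet inducer, incubated about 16 h, then dye-loaded at room temperature.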
D2 agonist: Beta-Arrestin HTS for Positive Allosteric Modulators of the Human D2 Dopamine Receptor: Agonists; 360,000 tested, 0.084% active; AID 624465, 2012; D(2) dopamine receptor (Homo sapiens), P14416; activation, % (no concentration beside the values); DiscoveRx PathHunter D2 beta-arrestin, luminescence, 90 min; 100% = 57 uM dopamine signal; in the data active = activation above about 40%; inconclusive = about 15% to 40%; inactive = below about 15%; further: compound concentration not given in the record; the text of the record calls up to 30% inactive
Target sequence (P14416 whole entry, looked up): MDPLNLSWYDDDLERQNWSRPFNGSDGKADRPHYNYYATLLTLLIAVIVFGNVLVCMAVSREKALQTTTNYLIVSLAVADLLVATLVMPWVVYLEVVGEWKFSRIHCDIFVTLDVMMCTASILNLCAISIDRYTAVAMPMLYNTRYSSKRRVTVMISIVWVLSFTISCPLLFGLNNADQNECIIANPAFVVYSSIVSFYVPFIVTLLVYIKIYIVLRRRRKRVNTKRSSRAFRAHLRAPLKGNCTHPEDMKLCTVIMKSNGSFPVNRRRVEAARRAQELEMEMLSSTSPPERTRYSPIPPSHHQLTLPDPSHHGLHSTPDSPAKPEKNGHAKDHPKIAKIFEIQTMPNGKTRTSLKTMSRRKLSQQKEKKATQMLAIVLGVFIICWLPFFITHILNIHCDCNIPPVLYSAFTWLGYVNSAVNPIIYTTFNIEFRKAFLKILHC
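DiscoveRx PathHunter D2 beta-arrestin cells (2,100/well) attached overnight, then compound-stimulated 90 min at 37 C in HBSS/10 mM HEPES/0.1% Tween-20 buffer; beta-galactosidase complementation read by luminescence after 1 h at ambient temperature. Dopamine 57 uM final (EC100) as control.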
D2 PAM: Beta-Arrestin HTS for Positive Allosteric Modulators of the Human D2 Dopamine Receptor: Potentiators | 360,000 tested, 0.23% active | potentiation, % (concentration not given with the values) | DiscoveRx D2 beta-arrestin cells, luminescence, 90 min; 100% = 57 uM dopamine signal | D(2) dopamine receptor (Homo sapiens), P14416; active = potentiation of 50% or more; inconclusive = 30% to 50%; inactive = 30% or less;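 further: compound concentration not given in the record; tested on top of an EC20 dose of dopamine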
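PathHunter beta-arrestin assay in DiscoveRx D2 cells. Compounds were added with an EC20 of dopamine (50 nM final) for 90 min at 37 deg C. Luminescence was read 1 h after detection reagent, with 57 uM dopamine as the EC100 control.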
PINK1 expr mod: A Quantitative High throughput Screen to Identify Chemical Modulators of PINK1 Expression; PINK1 immunofluorescence, high-content cytometry, 24 h; Potency, µM (doses to about 76.6 µM), for inactives: at the highest dose activation (PINK1 increase), most hits filed as activators; 410,000 tested, 0.2% active; AID 624263, 2012; active = well fitted activation curve with a large enough effect; inconclusive = small, poorly fitted or top-dose-only effect; inactive = flat fitted curve, though single readings scatter; cell line not stated here;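 further: potency means the concentration at half of the fitted maximal effect; % of control where 0% means no effect; nearly all actives have a fitted effect of over 65% in size; a mitochondrial uncoupler was the plate control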
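Measures PINK1 amount and localization on or inside mitochondria by immunofluorescence. Stable cells get compounds at 5 concentrations for 24 hours before fixation and staining; CCCP controls included.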
Six1-Eya2 inh: qHTS Assay for Inhibitors of the Six1/Eya2 Interaction | activity change, % (no concentration beside the values) | 360,000 tested, 0.56% active | AlphaScreen GST-Six1/His-Eya2 binding, biochemical; stronger effect = lower value; control for the full effect not named in the record | Homeobox protein SIX1 (Homo sapiens) + Protein phosphatase EYA2 (Homo sapiens), …; in the data active = activity change below about -65%; inconclusive = about -30% to -65%; inactive = above about -30%; further: on the % scale 0 is the no-effect control and ±100 the full control effect; compound concentration not given in the record
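GST-Six1 + His-Eya2 (5X stock: 250/500 nM); Tris pH 8.0, 300 mM NaCl, 0.05% BSA, 0.02% Tween 20; GSH donor/Ni acceptor beads; 1 h 37 °C dark; AlphaScreen readout.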
TRPML1 inh: qHTS for Inhibitors of the Human Mucolipin Transient Receptor Potential 1 (TRPML1); AID 624415, 2012; 390,000 tested, 0.02% active; TRPML1-inducible cells, Ca2+ dye fluorescence, FDSS; stronger effect = lower value; inhibition of EC80 agonist-evoked calcium signal; Mucolipin-1 (Homo sapiens), Q9GZU1; activity change, negative = inhibition, % (test concentration not listed); in the data active means activity change below about -50%; inconclusive means about -30% to -50%; inactive means above about -30%;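 further: stimulus is agonist 54-4 at its EC80 concentration; on the % scale 0 is the no-effect control and ±100 the full control effect; compound concentration not given in the record; the text of the record puts the active cut at -80%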
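Calcium fluorescence in TRPML1-DL cells induced overnight with Tet: a 110 s read after compound pin addition, then a 110 s antagonist read after challenge with 54-4 at 4 uM final (EC80).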
The depositor's hits bear a star; ? = inconclusive; . = no result given; [ ] = remark or other dose. Compounds were not picked by outcome. Share with any hit: about 1%.

molecule	TRPML1 ag	D2 agonist	D2 PAM	PINK1 expr mod	Six1-Eya2 inh	TRPML1 inh
O=c1c2ccccc2n(CC(O)CN2CCOCC2)c2ccccc12 (configuration not stated)	-0.7	-2.3	-8	2.7%	-17	-15
Cc1nc(/N=C(\N)NC(=O)NC2CCCCC2)nc2ccccc12	1.8	-5.2	-13	?	-15	11
N#Cc1ccsc1NC(=O)C1CC(=O)N(Cc2ccccc2)C1 (configuration not stated)	0.1	-0.1	6	-4.1%	0	-9
CC(C)C(NC(=O)c1c(F)cccc1F)C(=O)NNC(=O)c1ccccc1 (configuration not stated)	0.6	4.4	-1	0.1%	1	-12
CCOC(=O)C1CCCN(C(=O)c2ccc3[nH]c4c(c3c2)CC(C)CC4)C1 (configuration not stated)	1.0	2.2	-1	2.2%	-7	-15
COc1ccc(CC(C)N2CCN(c3ccccc3)CC2)cc1OC (configuration not stated)	0.0	?	2	11%[38.3 µM]	3	?
C=CCn1c(SCC(=O)NC(C)(C)C)nnc1-c1ccccc1O	-0.3	-2.3	-11	-1.7%[38.3 µM]	3	-7
Nc1nc(NCc2ccco2)nc(NC2CCCCC2)c1[N+](=O)[O-]	0.9	-2.1	0	-0.3%	-10	2
O=C(NCc1ccccc1)c1nc2ccccc2s1	-0.2	-2.4	0	-0.7%	5	17
COc1ccccc1-n1cnnc1SCC(=O)N1CCN(S(=O)(=O)c2ccccc2)CC1	-0.7	-1.5	1	-2.1%	-1	-1
CCOc1cccc(C(=O)Nc2cc(-c3ccc(C)cc3)no2)c1	0.2	.	.	7.9%	.	5
CC(C)Oc1ccc(CCc2nnc(SC(C)C(=O)O)n2-c2ccccc2)cc1 (configuration not stated)	-0.4	-5.4	-8	3.3%	-5	1
O=C(Nc1ccccc1)C1Cc2c(-c3ccc(Cl)cc3)ccnc2O1 (configuration not stated)	-0.5	6.5	-2	0.8%	-5	.
Cc1nnc(SCC(=O)NC(=O)NC(C)(C)C)s1	-0.2	-0.8	-5	1.2%	-1	1
C[C@@H]1CN([C@@H](C)CO)C(=O)c2cc(NC(=O)C3CCCCC3)ccc2O[C@@H](C)CCCCO[C@H]1CN(C)S(=O)(=O)c1ccc(Cl)cc1	0.2	-9.3	0	1.0%	-5	11
CNC(=O)c1[nH]cnc1C(=O)Nc1ccc(OC)cc1	-0.4	5.9	13	1.0%	-14	-8
CC(=O)N/C(=C\c1ccccc1)C(=O)OCC(=O)c1c(N)n(C)c(=O)n(C)c1=O	0.0	2.8	-20	-0.1%	2	-13
COC(=O)c1cc(NS(=O)(=O)c2ccc(N3CCOCC3)c(NC(C)=O)c2)cc(C(=O)OC)c1	-1.1	-2.1	-5	0.1%	4	-19
Cc1ccc(N2CCN(C3=NC(=O)C(Cc4ccccc4)S3)CC2)cc1 (configuration not stated)	2.3	-2.5	-22	-1.5%	-13	-12
CCOC(=O)CCn1cc(F)c(=O)n(Cc2ccccc2)c1=O	-0.4	-0.6	-9	4.3%[38.3 µM]	7	-1
Cc1ccc(N=C2SC(C(=O)Nc3ccc(OC(F)(F)F)cc3)C(N)=C2C(=O)Nc2c(C)cc(C)cc2C)cc1 (configuration not stated)	0.1	-3.5	-7	-3.4%	-2	-17
O=[N+]([O-])c1cccc(COc2cccc(CN3CCOCC3)c2)c1	-0.3	0.4	-3	4.9%	-26	19
Cn1cc(C(=O)NCc2ccccc2Cl)c(=O)c2cc(S(=O)(=O)N3CCCCCC3)ccc21	-0.6	.	.	1.7%	.	10
CCOC(=O)c1cccc(NC(=O)CN2CCN(c3ccc(OC)cc3)CC2)c1	0.6	-2.8	-19	-0.3%	-26	-2
N#Cc1ccc(C(=O)OCC(=O)N2CCCC2)cc1	-0.1	-3.0	-5	5.7%	-2	-5
COC(=O)C1CCN(C(=O)COC(=O)COc2ccc(C#N)cc2)CC1	1.0	-3.5	-5	1.4%	-2	5
CSc1nn(CC(=O)Nc2ccc(C)cc2C)c(N)c1S(=O)(=O)c1ccc(Cl)cc1	0.3	.	.	?	.	17
CN(CC(=O)Nc1ccc(Cl)cc1)C(=O)c1ccc(COc2ccccc2)cc1	-0.2	1.6	-5	9.9%	-1	-4
O=C(C1=C[C@@H](c2coc3ccccc3c2=O)C[C@@H](OCc2ccc(CO)cc2)O1)N1CCOCC1	-0.2	1.0	-12	-1.0%	0	-1
CCCCC1C2C(=O)N(c3ccc(C)cc3)C(=O)C2ON1c1ccccc1 (configuration not stated)	1.3	9.9	2	0.0%	1	16
CC1=CC(C)C(COC(=O)CN2CCCCC2)C(C)C1 (configuration not stated)	-0.2	-12	-3	3.0%	7	14
O=C(OCC(=O)N1CCOCC1)c1cc2ccccc2oc1=O	-0.5	0.8	2	2.1%	3	15
COc1ccc(CCNC(=O)c2ccc(Cl)c(S(=O)(=O)N(C)c3ccccc3)c2)cc1	-0.5	8.3	-6	-1.8%	1	-9
CCc1ccccc1NC(=O)c1oc(=O)c2ccccc2c1-c1ccccc1	2.2	.	.	-0.2%	.	12
COc1ccc(-c2noc(C(=O)NCc3ccc(F)cc3)n2)cc1OC	-0.1	-1.5	-4	-1.6%	-11	3
NC(=O)c1cc2cc(Br)ccc2o/c1=N/NC(=O)c1cccc(F)c1	-0.1	-2.8	-21	-0.2%	-8	-11
O=C(Cc1cccc([N+](=O)[O-])c1)Nc1ccc(C(=O)N2CCCCC2)cc1	-0.3	-1.2	-4	2.3%	-4	4
N#Cc1ccc(Oc2ncccn2)cc1	0.5	-1.4	-2	-1.5%	-4	6
COC(=O)Cn1c(SCc2ccccc2)nc2ccccc21	1.3	-0.5	-4	-1.6%	7	-9
CCOC(=O)c1c(NC(=O)CN2C(=O)CN(C)C2=O)sc(C)c1C	-0.1	4.0	-8	2.9%	1	-4
CCOC(=O)CN1CC23C=CC(O2)C(C(=O)Nc2cc(OC)ccc2OC)C3C1=O (configuration not stated)	0.5	-0.8	1	-3.8%	-8	-6
O=C(O)C1CCCCC1C(=O)NCc1ccc2c(c1)OCO2 (configuration not stated)	-0.9	-5.0	0	2.1%	-2	-6
CCOc1ccc(-n2ccnc2SCC(=O)Nc2nnc(C)s2)cc1	-0.9	-2.1	-16	-0.8%	-6	-3
O=C(Cc1ccccc1)N/N=C/c1cccc([N+](=O)[O-])c1	-0.2	0.3	-8	1.8%	1	39
Cc1nc([N+](=O)[O-])c(Br)n1CC(=O)c1cccc([N+](=O)[O-])c1	0.1	5.9	5	19%	-26	-15
COc1ccc(-n2nnnc2CNC(=O)C(=O)c2c(C)[nH]c3ccccc23)cc1	-0.5	1.9	-4	1.1%	-4	-6
COc1ccc(CC(=O)Oc2ccccc2C)cc1	0.1	-3.9	-2	4.0%	19	6
NS(=O)(=O)c1cccc(NC(=O)CSc2nnc(-c3ccccc3F)n2C2CC2)c1	0.1	-3.3	-3	0.2%	-7	-6
O=[N+]([O-])c1cc(Br)c(O)c(C=Nc2ccc(N3CCOCC3)cc2)c1	-0.6	2.5	-7	3.3%	-6	14
CN(Cc1ccccc1)C(=O)CN1C(=O)NC(C)(c2ccc(Cl)cc2)C1=O (configuration not stated)	-0.4	-1.4	-2	2.7%	1	5

More entries.
molecule	TRPML1 ag	D2 agonist	D2 PAM	PINK1 expr mod	Six1-Eya2 inh	TRPML1 inh
CC1CC(C)CN(CC(=O)Nc2ccc3c(c2)OCCO3)C1 (configuration not stated)	-0.7	-1.2	-18	2.0%	-10	5
Cc1cc(/C=C(/C#N)C(=O)O)c(C)n1CCC(C)C	1.3	-3.5	11	3.1%	-2	-10
O=C(c1ccccc1)N1CCCC(C(=O)N2CCCCCC2)C1 (configuration not stated)	-0.7	-3.8	-16	0.9%	26	-2
CCCS(=O)(=O)NC(=O)C1(C)CCN(C(=O)c2ccnc(Cl)c2)C1 (configuration not stated)	-0.2	-4.9	-6	0.7%	6	.
COCCOC(=O)c1c(NC(=O)CN2c3ccccc3CC2C)sc(C(N)=O)c1C (configuration not stated)	0.2	5.2	-1	0.4%	-8	13
COC(=O)CSc1nc2sc3c(c2c(=O)n1-c1ccc(OC)cc1)CCN(C)C3	0.9	-3.3	-5	3.9%	0	68
COc1ccccc1NC(=O)Cn1nnc(C(=O)Nc2ccccc2Br)c1N	1.1	.	.	?	.	13
O=C1CNCc2[nH]c3ccccc3c2N1c1ccccc1	0.2	-3.5	-13	9.4%	-6	0
Cc1ccc2nc(-c3ccc(Cl)cc3)c(Cc3ccccc3C(F)(F)F)n2c1	0.5	2.5	2	3.7%	2	23
CN(C)c1ccc(C(c2ccc(N(C)C)cc2)C(O)c2ccccc2)cc1 (configuration not stated)	2.4	1.5	-4	1.5%	-65*	9
COc1ccc(C/C(N)=N/n2cnnc2)cc1	0.1	0.2	7	2.0%[38.3 µM]	1	-15
COc1cc(NC(=O)CN2CCCN(Cc3cccc(F)c3)S2(=O)=O)cc(OC)c1	1.2	.	.	-1.2%	.	15
COC(=O)c1coc(-c2ccc(OC)cc2)c1C(=O)OC	-1.8	-1.1	16	1.9%	6	-15

Ordered by SMILES length (low to high): five of the compounds above
molecule	TRPML1 ag	D2 agonist	D2 PAM	PINK1 expr mod	Six1-Eya2 inh	TRPML1 inh
COc1ccc(C/C(N)=N/n2cnnc2)cc1	0.1	0.2	7	2.0%[38.3 µM]	1	-15
O=C1CNCc2[nH]c3ccccc3c2N1c1ccccc1	0.2	-3.5	-13	9.4%	-6	0
CC1CC(C)CN(CC(=O)Nc2ccc3c(c2)OCCO3)C1 (configuration not stated)	-0.7	-1.2	-18	2.0%	-10	5
Cc1ccc2nc(-c3ccc(Cl)cc3)c(Cc3ccccc3C(F)(F)F)n2c1	0.5	2.5	2	3.7%	2	23
COC(=O)CSc1nc2sc3c(c2c(=O)n1-c1ccc(OC)cc1)CCN(C)C3	0.9	-3.3	-5	3.9%	0	68

Six1-Eya2 inh: what is marked active above.
| SMILES | D2 agonist | D2 PAM | PINK1 expr mod | Six1-Eya2 inh | TRPML1 inh |
| --- | --- | --- | --- | --- | --- |
| CN(C)c1ccc(C(c2ccc(N(C)C)cc2)C(O)c2ccccc2)cc1 (configuration not stated) | 1.5 | -4 | 1.5% | -65* | 9 |
